# High-throughput results: PubChem BioAssay, several laboratories
# CBX7 AlphaScr: CBX7 chromodomain binding inhibitors, primary screen, biochemical, AlphaScreen | Chromobox protein homolog 7 (Homo sapiens), O95931 | 66,000 compounds, 1.1% hits | AlphaScreen His6-CBX7 / biotin-H3K27me3 peptide binding; stronger effect = lower value | normalised signal (fraction of DMSO) (concentration not given with the values); in the data active = normalised signal below about 0.5;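 also: 100 nL library stock added to about 20 µL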
# Target sequence (O95931 whole entry, looked up): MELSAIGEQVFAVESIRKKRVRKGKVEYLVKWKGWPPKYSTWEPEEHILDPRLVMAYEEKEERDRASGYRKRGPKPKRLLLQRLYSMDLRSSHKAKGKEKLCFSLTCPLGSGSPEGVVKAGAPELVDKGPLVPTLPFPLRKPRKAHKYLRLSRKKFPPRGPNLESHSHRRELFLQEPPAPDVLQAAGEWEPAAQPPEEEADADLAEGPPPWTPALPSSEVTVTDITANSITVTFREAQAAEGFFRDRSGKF
# CBX7 AlphaScr z-score: second read-out of CBX7 AlphaScr, no call of its own (marks repeat the call); z-score; measured here: z-score of CBX7 signal; some inactives read as strong as hits; reference of the scale not given here;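 same signal on another scale; lower means less binding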
# Starred values were filed as active, the others as inactive; ! = not confirmed by another sample. This is a subset, so the mix of outcomes need not match the whole.
# Start of the listing, in advance:
structure	CBX7 AlphaScr	CBX7 AlphaScr z-score
CCc1ccc(OCc2nc(-c3ccc(C)cc3)no2)c(Br)c1	1.3	9.1
COc1ccc2nc(N3CCC(C(=O)NCCc4ccc(OC)c(OC)c4)CC3)sc2c1	1	0.84
O=C1CC(=O)Nc2cc(S(=O)(=O)NC3CCCCC3)ccc2N1	1	0.65
CCOc1ccc(CCN2C(=O)Cn3cccc3C2C(=O)NC2CCC(C)CC2)cc1 (stereo not given)	0.94	-1.1

# This part in full, previewed entries included:
structure	CBX7 AlphaScr	CBX7 AlphaScr z-score
CCc1ccc(OCc2nc(-c3ccc(C)cc3)no2)c(Br)c1	1.3	9.1
COc1ccc2nc(N3CCC(C(=O)NCCc4ccc(OC)c(OC)c4)CC3)sc2c1	1	0.84
O=C1CC(=O)Nc2cc(S(=O)(=O)NC3CCCCC3)ccc2N1	1	0.65
CCOc1ccc(CCN2C(=O)Cn3cccc3C2C(=O)NC2CCC(C)CC2)cc1 (stereo not given)	0.94	-1.1
COc1nnc(-c2ccc(N3CCCCC3)c(NC(=O)c3ccc(C)cc3)c2)c2ccccc12	0.92	-2.1
CCOC(=O)c1c(CSc2ccccc2)n(C)c2ccc(O)c(CN3CCOCC3)c12	0.93	-1.7
Cc1ccc(NC(=O)CN2C(=O)c3ccccc3C2=O)c(C(=O)c2ccccc2)c1	0.92	-1.3
COc1ccc(S(=O)(=O)CCc2nnc(NC(C)=O)s2)cc1	1.2	0.83
Cc1ccccc1NC(=O)CCn1nc(-c2ccc(Cl)cc2)c2ccccc2c1=O	1	1.1
Cc1cccc(NC(=O)CCc2c(C)nc3cc(-c4ccccc4)nn3c2C)c1C	1.1	2.8
Cc1cc(NCc2ccc3c(c2)OCO3)n2nnnc2n1	0.97	-0.56
COc1ccc(NC(=O)CS(=O)(=O)c2[nH]c(-c3ccc(F)cc3)nc2-c2ccccc2)cc1Cl	0.95	-1.8
Clc1cc2c(cc1CSc1nc3ncccc3[nH]1)OCO2	0.98	-1.2
O=C(Nc1nc(-c2ccc(Cl)cc2)cs1)c1ccccc1	1	0.39
CCOC(=O)C1CCN(S(=O)(=O)c2ccc3c(c2)CCN3C(=O)C2CCC2)CC1	1	-0.099
COc1ccc(-n2nc(C(=O)N(C)c3ccc(Cl)cc3)c3ccccc3c2=O)cc1	0.71	-1.8
Cc1noc(C)c1S(=O)(=O)NC(C)c1ccccc1 (stereo not given)	1	1.9
COc1ccccc1-c1nnc(SCC(=O)N2CCCC2)o1	0.91	-0.21
COc1ccc(S(=O)(=O)Nc2c(C)nc3nc[nH]n3c2=O)cc1OC	1	1.4
Cc1cc(C)c2oc(-c3ccc(NC(=O)COc4cc(C)c(Cl)c(C)c4)cc3)nc2c1	0.97	-0.58

structure	CBX7 AlphaScr	CBX7 AlphaScr z-score
CCOC(=O)c1c(C)n(-c2ccccc2)c2ccc(OC(C)=O)cc12	0.99	-0.12
Clc1ccc(Cn2ncc3c(N4CCN(C/C=C/c5ccccc5)CC4)ncnc32)c(Cl)c1	0.94	-1.5
FC(F)(F)c1cccc(Nc2nc(-c3cccnc3)nc3ccccc23)c1	1	0.095
COc1ccc(-n2nc(C(=O)NCCc3ccc(OC)c(OC)c3)c3ccccc3c2=O)c(OC)c1	0.93	-1.9
Cc1cccc(CN2C(=O)CSc3ccc(C(=O)NCc4c(F)cc(F)cc4F)cc32)c1	1	1.4
COC(=O)CN1C(=O)CC(C)(C)S(=O)c2ccccc21 (stereo not given)	1	0.015
Cc1ccc(N2CCN(C(=O)Cn3nc(Cc4ccncc4)c4ccccc4c3=O)CC2C)cc1 (stereo not given)	1	0.44
COc1ccc(C2CC(=O)N(CC(=O)NCCc3ccccc3)c3ccccc3S2)cc1 (stereo not given)	1	0.068
CCn1c(=O)c(-c2nc3ccccc3c(=O)[nH]2)c(O)c2ccccc21	1	0.65
Cc1cccc(CN2CCN(CC(=O)NCCc3ccc(Cl)cc3)C2=O)c1	1	1.7
Cc1ccc(NC(=O)CCCN2C(=O)c3cccnc3C2=O)cc1F	1.2	0.35
COc1ccc(-c2cc(-c3c(O)c(OC)c4occc4c3OC)[nH]n2)cc1OC	0.45*	-5.9*
Cc1nc(N2CCOCC2)c2c(C)c(C(=O)Nc3ccc4c(c3)OCO4)sc2n1	0.98	-0.033
CCC(C)NC(=O)c1ccc2c(c1)N=C(C)c1cc(Cl)ccc1S2 (stereo not given)	0.92	-0.9
COc1ccccc1CNC(=O)c1cc(Nc2ccc(C(C)C)cc2)nc2ccccc12	1.3	8.2
COc1cc(-c2nc3sc4c(c3c(=O)[nH]2)CCCC4)ccc1OC(C)c1ccccc1 (stereo not given)	1.1	1.5
O=C(NC1CCCc2ccccc21)c1ccc2c(=O)n3c(nc2c1)CCCCC3 (stereo not given)	0.87	-2.1
O=C(O)CC1(Cc2nc(-c3cccs3)no2)CCCC1	1.1	2.3
Cc1cc(C)c(NC(=O)c2csc3c2CCCC3)c(C)c1	1.1	2.1
O=C(Cn1nc(-c2ccc(Cl)cc2)c2ccccc2c1=O)NCc1ccccn1	1	0.1

# An excerpt of these results, with each value named:
> COC(=O)CN1C(=O)CC(C)(C)S(=O)c2ccccc21 (stereo not given)
- CBX7 AlphaScr = 1
- CBX7 AlphaScr z-score = 0.015
> COc1ccc(-c2cc(-c3c(O)c(OC)c4occc4c3OC)[nH]n2)cc1OC
- CBX7 AlphaScr = 0.45*
- CBX7 AlphaScr z-score = -5.9*
> Cc1ccc(N2CCN(C(=O)Cn3nc(Cc4ccncc4)c4ccccc4c3=O)CC2C)cc1 (stereo not given)
- CBX7 AlphaScr = 1
- CBX7 AlphaScr z-score = 0.44
> COc1ccc(-n2nc(C(=O)NCCc3ccc(OC)c(OC)c3)c3ccccc3c2=O)c(OC)c1
- CBX7 AlphaScr = 0.93
- CBX7 AlphaScr z-score = -1.9

# (more compounds)
structure	CBX7 AlphaScr	CBX7 AlphaScr z-score
Cc1cc(N2CCC(C(=O)NCc3ccccn3)CC2)n2nc(C)c(-c3ccc(Cl)cc3)c2n1	1.1	2.6
O=C(NCCCN1CCCCCC1)C1CC(=O)N(C2CCCC2)C1 (stereo not given)	1.1	2.1
COc1ccc(Nc2cc(C(=O)NCCCN3CCN(C)CC3)c3ccccc3n2)c(OC)c1	0.78	-3.4
CCC(=O)N1CCc2cc(S(=O)(=O)NC(C(=O)Nc3ccc(OC)cc3)C(C)C)ccc21 (stereo not given)	0.92	-1.5
CC(NC(=O)C1CCN(S(=O)(=O)c2cnc[nH]2)CC1)c1ccccc1 (stereo not given)	0.89	-1.4
CCOc1cc2[nH]c(=O)n(CCCC(=O)N3CCN(c4cccc(Cl)c4)CC3)c(=O)c2cc1OCC	0.94	-1.2
O=C(N1CC=C(c2ccccc2)CC1)C1(S(=O)(=O)c2ccc(Cl)cc2)CC1	1	0.23
Cc1ccc(NC(=O)C(Cc2ccccc2)NS(=O)(=O)c2ccc3c(c2)CCC(=O)N3)cc1C (stereo not given)	0.94	-1
CCOC(=O)c1cnc2c(C)cc(C)cc2c1Nc1ccc(N2CCCCC2)cc1	0.28*	-18*
CCOc1ccc2nc(N3CCCC(C(=O)Nc4ccc(CC)cc4)C3)sc2c1 (stereo not given)	0.99	-0.23
O=C(NC1CCCCC1)C1c2cccn2CC(=O)N1CCCN1CCCC1=O (stereo not given)	1.1	1.7
Cc1ccccc1Cn1c(=O)n(CCCC(=O)NCc2ccccc2)c(=O)c2sccc21	0.95	-1
c1ccc(CCn2c(CSc3nnnn3-c3ccccc3)nc3ccccc32)cc1	1.1	3.8
Cc1ccccc1NC(=O)C1(S(=O)(=O)c2ccc(Cl)cc2)CC1	0.99	-0.34
COc1ccc(NC(=O)CCn2nc(-c3ccccc3)c3ccccc3c2=O)cc1	0.98	-0.19
CC(C)c1ccc(NC(=O)c2sccc2-n2cccc2)cc1	1	1.9
CCOc1ccc(-n2nc(C(=O)Nc3cc(C)ccc3OC)c3ccccc3c2=O)cc1	0.97	-0.82
CC(=O)Nc1cccc(NC(=O)c2c(-c3ccccc3)noc2C)c1	1	-0.14
Cc1ccccc1OCC(=O)N(Cc1ccc(Cl)cc1)C1CCS(=O)(=O)C1 (stereo not given)	1.2	2.2
Cc1[nH]c2ccccc2c1CCNS(=O)(=O)c1ccc(Cl)c(C(=O)Nc2ccccc2)c1	0.57	-0.43

structure	CBX7 AlphaScr	CBX7 AlphaScr z-score
COc1cccc(C(=O)Nc2cc(-c3nn4c(C)nnc4s3)ccc2C)c1	1	1.4
COc1ccccc1CNC(=O)c1nnc(Cc2ccc(F)cc2)o1	0.82	-2.1
CCc1ccccc1Nc1nc(-c2ccccc2)cs1	0.93	-1
COc1ccc(OCC(=O)Nc2cc(-c3nc4ncccc4o3)ccc2Cl)cc1	1	0.63
COc1cc(OC)c(OC)cc1CN1CCN(Cc2cccnc2)CC1	0.82	-2.2
Clc1ccc(-c2nnc3sc(-c4ccccc4)nn23)cc1	1	-0.0012
CC1CCN(CCCNC(=O)CN2C(=O)COc3ccc(C(C)(C)C)cc32)CC1	1	0.72
COc1ccc(CNC(=O)Cn2cnc3sc(C)c(S(=O)(=O)N4CCC(C)CC4)c3c2=O)cc1	1.1	0.075
CC1CN(S(=O)(=O)c2ccc(C(=O)Nc3nnc(-c4cccs4)o3)cc2)CC(C)O1 (stereo not given)	0.77	-5.2
CC1CCCC(NC(=O)c2ccc3c(c2)N(Cc2ccc(F)cc2)C(=O)CS3)C1C (stereo not given)	1.1	0.6
Cc1cc(NC(=O)CSc2nc(NCCc3ccccc3)c3ccccc3n2)n[nH]1	1	0.12
CCCc1ccc(-c2ccc(C3CCC(CC)CC3)cc2)nc1 (stereo not given)	1.3	6.2
CCCc1[nH]c(Br)nc1-c1ccccc1	0.89	-1.9
CCOC(=O)N1CCC(Nc2c(N(CC)Cc3ccccc3)c(=O)c2=O)CC1	0.89	-1.3
CCn1cc(C(=O)N(C)c2ccc(C)c(C)c2)c2cc(OC)c(OC)cc2c1=O	1.1	0.28
COC(=O)c1nnn(-c2nonc2N)c1C(C)(C)C	1	0.9
O=C(Cn1nc(Cc2cccnc2)c2ccccc2c1=O)NC1CCCC1	1	0.18
Cc1cc(=O)oc2c(CN3CCN(C)CC3)c(O)ccc12	1	-0.077
COCCCNC(=O)CC1Nc2ccccc2NC1=O (stereo not given)	1.1	2.1
Cc1ccc(CNC(=O)C2CCC(=O)N2CCc2ccccc2)cc1 (stereo not given)	1	0.38

structure	CBX7 AlphaScr	CBX7 AlphaScr z-score
Cc1ccc(-c2nc3ccccc3o2)cc1NC(=O)c1ccc(Br)cc1	1	0.082
CCOC(CNC(=O)c1ccc2c(c1)nc(C)n2-c1ccc(Br)cc1)OCC	1	1.1
CCOc1ccc(Nc2cc(C(=O)NCCN3CCCC3)c3ccccc3n2)cc1	0.88	-1.9
CCCCCOc1ccc(C(=O)Nc2ccc3sc(C)nc3c2)cc1	1.3	2.4
CN1CCN(CCCNC(=O)CC2Oc3ccccc3NC2=O)CC1 (stereo not given)	1.2	1.2
COC(=O)C(C)n1cnc2c(nnn2Cc2ccc(F)cc2)c1=O (stereo not given)	0.96	-0.77
CCCC1=Nc2cc(C(=O)N3CCN(c4ccccc4F)CC3)ccc2Sc2ccccc21	0.8	-10
Cc1nc2sccn2c1-c1csc(Nc2cccc(O)c2)n1	0.27*!	-0.82*!
CC(=O)NC1C(OCc2ccc(Cl)cc2Cl)OC(COC(C)=O)C(OC(C)=O)C1OC(C)=O (stereo not given)	1	1.7
COc1ccc(NC(=O)c2cc(C3CC3)on2)c(OC)c1	1.1	2.1
CC(=O)N1CCc2cc(S(=O)(=O)Nc3ccc4c(c3)OCO4)ccc21	0.81	-6.1
COc1ccc(N2C(=O)c3ccc(C(=O)Nc4ccc(NC(C)=O)cc4)cc3C2=O)cc1	0.86	-4.9
COC(=O)c1sc(NC(=O)c2c(-c3ccccc3Cl)noc2C)nc1C	1	0.79
Cc1cc(OC(C)C(=O)N(Cc2ccc(C(C)C)cc2)C2CCS(=O)(=O)C2)cc(C)c1Cl (stereo not given)	0.87	-1.6
COc1ccc(-c2cc(C(=O)Nc3cccc(Cl)c3C)no2)cc1	1.4	1.5
Cc1ccc(NCc2nc3ccccc3n2Cc2ccccc2F)cc1	0.88	-3.3
OC(COCC1CC=CCC1)Cn1cnc2ccccc21 (stereo not given)	0.69	-4.8
OC(COc1ccccc1)CN1CCN(c2ccccc2)CC1 (stereo not given)	1.1	0.57
CCOCCn1c(COc2ccc(Cl)cc2)nc2ccccc21	1	1.2
Cc1ccc2c(c1)NCC(C(=O)NC1CCCCC1)O2 (stereo not given)	1.1	1.4

structure	CBX7 AlphaScr	CBX7 AlphaScr z-score
COC(=O)c1nnc(Nc2ccc(Oc3ccccc3)cc2)c2ccccc12	0.94	-1.4
CCN(CCCNC(=O)CCc1nc(-c2ccccc2F)no1)c1cccc(C)c1	0.88	-2.6
O=C(CSc1nnc(COc2ccc(Cl)cc2)o1)N1CCCCC1	1.1	1.3
COc1ccc(-c2nc(SCC(=O)NCC3CCCO3)c(-c3ccc(C)cc3)[nH]2)cc1 (stereo not given)	1.1	2.2
CCc1nc(SCC(=O)c2ccc(Cl)cc2Cl)c(C#N)c2c1CCCC2	1.8	1.5
CCCCSc1nc(C)cc(Oc2ccc(=O)n(C)n2)n1	0.99	-0.48
COCCNc1ncc(C(=O)OC)c2ccccc12	0.95	-1.2
CC(C)CNC(=O)C1CC(c2ccc(F)cc2)=NO1 (stereo not given)	1	1.8
COc1ccccc1C(=O)Nc1cc(-c2nc3cc(C(C)C)ccc3o2)ccc1Cl	1.2	0.78
O=C(c1ccc2c(c1)N(Cc1ccccc1F)C(=O)c1ccccc1S2)N1CCOCC1	1	0.8
